PK Bst: Pyruvate Kinase | partly purified Bacillus stearothermophilus pyruvate kinase, luminescence ATP production; ribose 5-phosphate activator present at AC10 | Potency, µM | 51,000 tested, 1.2% active | AID 361, 2006; in the data active means potency below about 11 µM; inconclusive means mostly about 12 µM to 25 µM; inactive means weaker than that;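 the screen sought inhibitors and activators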;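 note: potency is the fitted concentration of half-maximal effect; scaled between full activation by ribose 5 phosphate and full inhibition by luteolin; about four in five hits inhibit and the cells do not say which; series up to 57 µM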
TsaE inh: qHTS Assay for Inhibitors of YjeE; purified YjeE, fluorescence polarisation of a bound ADP probe; tRNA threonylcarbamoyladenosine biosynthesis protein TsaE (Escherichia coli (strain …; Potency, µM; 71,000 tested, 0.05% active; active = well fitted falling curve; inconclusive = weaker or top-dose-only fall, or a rising curve; inactive = flat or poorly fitted curve;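 note: top concentration of the series not given in the record; excess ADP was the control for the full effect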
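Purified YjeE (10 uM) with BODIPY Texas Red-labeled ADP probe (2 uM); compounds pin-transferred, 15 min at room temperature. Binding inhibition read as decreased fluorescence polarization; ADP titration as control.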
The depositor's hits bear a star. This is a subset. The share of hits here may be higher or lower than overall.

Results for Cn1cccc1Cc1nnc(SCC(=O)NCC2CCCO2)n1-c1ccc(F)cc1 (centres undefined) ?
TsaE inh: inactive

How did COCCCNC(=O)CSc1nc2ccccc2c(=O)n1CCCC(=O)NCC1CCCO1 (centres undefined) do in these assays?
PK Bst: >57; TsaE inh: inactive

How did COC(=O)c1cc2occc2n1Cc1c(F)cccc1Cl do in these assays?
PK Bst: >57; TsaE inh: inactive

What do the screens show for `Cc1ccc(C)c(N2CC(=O)N(c3cc(C)ccc3C)CC2=O)c1`?
PK Bst: >57; TsaE inh: inactive

Results for COCCn1c(=O)c(-c2ccc(F)cc2)nc2cnc(Oc3ccccc3)nc21 ?
TsaE inh: inactive

What do the screens show for `O=C(CCn1nnc2ccccc21)Nc1nnc(Cc2ccccc2)s1`?
PK Bst: >57; TsaE inh: inactive

Results for CCN(CC)S(=O)(=O)c1ccc(N2CCCC2)c(C(=O)OCC(=O)/C(C#N)=C(\C)N)c1 ?
PK Bst: >57; TsaE inh: inactive

What do the screens show for `COc1ccc(CCN2CNc3c(c(=O)n(C)c(=O)n3C)C2)cc1OC`?
PK Bst: >57; TsaE inh: inactive

Results for CCC(C(=O)NC1CCCCC1)N(CC1CCCO1)C(=O)CNS(=O)(=O)c1ccc(OC)cc1 (centres undefined) ?
PK Bst: >57; TsaE inh: inactive

Results for CNC(=O)NC(=O)COC(=O)CCCOc1ccc(OC)cc1 ?
PK Bst: >57; TsaE inh: inactive

What do the screens show for `CCOC(=O)C1CCCN(C(=O)c2cc3c(C)nc4ccccc4c3o2)C1` (centres undefined)?
PK Bst: >57; TsaE inh: inactive

How did O=c1c(O)c(-c2cc(O)c(O)c(O)c2)oc2cc(O)cc(O)c12 do in these assays?
TsaE inh: inactive

What do the screens show for `COCCCn1c(SCC(=O)N(C)C)nnc1-c1ccccc1`?
PK Bst: >57; TsaE inh: inactive

How did Cc1cc(C)c2c(=O)[nH]c(SCC(=O)N3CCCCC3)nc2n1 do in these assays?
TsaE inh: inactive

Results for Cc1cccc(NC(=O)Cn2cccc2)c1 ?
PK Bst: >57; TsaE inh: inactive

What do the screens show for `COc1ccc2cnn(Cc3ccccc3)c(=O)c2c1OC`?
PK Bst: inconclusive; TsaE inh: inactive

Results for COC(=O)c1ccc(NC(=O)CN(C)S(=O)(=O)c2ccc(OC)c(C)c2)cc1 ?
PK Bst: >57; TsaE inh: inactive

Results for Cc1cc(C)n(-c2nc3ccccc3nc2N2CCN(C(=O)c3ccccc3)CC2)n1 ?
PK Bst: >57; TsaE inh: inactive

How did COc1ccc(C(=O)Nc2ccncc2)cc1OC do in these assays?
TsaE inh: inactive

Results for CNS(=O)(=O)c1cccc(C(=O)OC2CCCCC2=O)c1 (centres undefined) ?
PK Bst: >57; TsaE inh: inactive

Results for O=c1c(-c2ccc(Cl)cc2)nc2cncnc2n1Cc1ccccc1Cl ?
TsaE inh: inactive

Results for O=C(c1ccccc1)c1ccc(OCC(O)CN2CCCCC2)cc1 (centres undefined) ?
PK Bst: >57; TsaE inh: inactive

What do the screens show for `Fc1ccc(Nc2ccnc(-c3ccccc3C(F)(F)F)n2)cc1`?
TsaE inh: inactive

How did CCS(=O)(=O)c1ccc(O)c(NC(=O)c2cc(OC)c(OC)c(OC)c2)c1 do in these assays?
TsaE inh: inactive

Results for CN(C)c1ccc(C2NCCS2)cc1 (centres undefined) ?
PK Bst: >57; TsaE inh: inactive

What do the screens show for `O=C(c1ccccc1Cl)N1CCC(c2nc3c(nnn3Cc3ccco3)c(=O)[nH]2)CC1`?
TsaE inh: inactive

How did CC(NC(=O)c1ccccc1Cl)C(=O)O (centres undefined) do in these assays?
TsaE inh: inactive

Results for CCCN1CCN(C(=O)Cn2c(=O)oc3cc(S(=O)(=O)NCc4ccccc4)ccc32)CC1 ?
TsaE inh: inactive

Results for Cn1c(=O)c2c(SCC(=O)N3CCCc4ccccc43)nc(C3CC3)nc2n(C)c1=O ?
TsaE inh: inactive

How did N#Cc1c(NCCCO)nc(-c2ccccc2)c2c1CCCC2 do in these assays?
PK Bst: >26

How did CC(=NCc1ccccc1)C1=C(O)COC1=O do in these assays?
TsaE inh: inactive

Results for c1ccc(Cn2ncc3c2ncn2nc(-c4ccncc4)nc32)cc1 ?
PK Bst: >57; TsaE inh: inactive

How did O=C(c1cnccn1)N1CCC[C@@]2(CCN(Cc3ccncc3)C2)C1 do in these assays?
TsaE inh: inactive

What do the screens show for `Cc1nnc(NC(=O)CSc2nc3c(c(=O)n2CCc2ccccc2)SC(C)C3)s1` (centres undefined)?
TsaE inh: inactive

How did COc1ccc(-c2cc(C(=O)NCCc3ccccc3)no2)cc1OC do in these assays?
PK Bst: >57; TsaE inh: inactive

Results for CCOc1ccc(C(=O)Nc2c(C(N)=O)oc3ccccc23)cc1 ?
PK Bst: 4*; TsaE inh: inactive

How did Cc1ccc(Cn2ccc(NC(=O)c3cc(-c4cccs4)on3)n2)cc1 do in these assays?
PK Bst: >57; TsaE inh: inactive

Results for O=c1c2cc(N3CCOCC3)ccc2[nH]c(=S)n1CCN1CCCC1 ?
PK Bst: >57; TsaE inh: inactive

What do the screens show for `CC1CCCC(C(=O)OCc2ccccc2)N1` (centres undefined)?
PK Bst: >57; TsaE inh: inactive

How did CCNc1nc(C)c2cc(Br)c(=O)n(CC)c2n1 do in these assays?
TsaE inh: inactive

Results for Cc1sc2nc(SCC(=O)Nc3c(C)n(C)n(-c4ccccc4)c3=O)n(C)c(=O)c2c1C ?
PK Bst: >57; TsaE inh: inactive

Results for COC(=O)[C@@]1(Cc2ccccc2)[C@H]2c3cc(C(=O)N4CCCC4)n(Cc4ccc(S(C)(=O)=O)cc4)c3C[C@H]2CN1C(=O)c1ccccc1 ?
TsaE inh: inactive

How did N#Cc1nc(COc2ccc(Br)cc2)oc1N1CCCC1 do in these assays?
PK Bst: >26

Results for CCOC(=O)C1CCN(C(=O)Cn2cc(C#N)c3ccccc32)CC1 ?
PK Bst: >57; TsaE inh: inactive

Results for CCCC(=O)NC(C)C(c1cccs1)N1CCN(c2ccccc2)CC1 (centres undefined) ?
PK Bst: >57; TsaE inh: inactive

The list goes on, starting with the last 6 of the part before.
How did CCNc1nc(C)c2cc(Br)c(=O)n(CC)c2n1 do in these assays?
TsaE inh: inactive

Results for Cc1sc2nc(SCC(=O)Nc3c(C)n(C)n(-c4ccccc4)c3=O)n(C)c(=O)c2c1C ?
PK Bst: >57; TsaE inh: inactive

Results for COC(=O)[C@@]1(Cc2ccccc2)[C@H]2c3cc(C(=O)N4CCCC4)n(Cc4ccc(S(C)(=O)=O)cc4)c3C[C@H]2CN1C(=O)c1ccccc1 ?
TsaE inh: inactive

How did N#Cc1nc(COc2ccc(Br)cc2)oc1N1CCCC1 do in these assays?
PK Bst: >26

Results for CCOC(=O)C1CCN(C(=O)Cn2cc(C#N)c3ccccc32)CC1 ?
PK Bst: >57; TsaE inh: inactive

Results for CCCC(=O)NC(C)C(c1cccs1)N1CCN(c2ccccc2)CC1 (centres undefined) ?
PK Bst: >57; TsaE inh: inactive

Results for Cc1ccc(SCCC(=O)N2CCCC2)cc1 ?
PK Bst: >57; TsaE inh: inactive

Results for CCOC(=O)COc1ccc(S(=O)(=O)NCc2ccncc2)cc1 ?
PK Bst: >57; TsaE inh: inactive

What do the screens show for `CCCS(=O)(=O)N1CCCC(C(=O)NCCCN2CCN(c3ccc(F)cc3)CC2)C1` (centres undefined)?
PK Bst: >57; TsaE inh: inactive

How did CCOC(=O)[C@H](CCc1ccccc1)N[C@@H](C)C(=O)N1[C@H](C(=O)O)C[C@H]2CCC[C@@H]21 do in these assays?
TsaE inh: inactive

What do the screens show for `Nc1nc(NCCc2ccc(O)cc2)nc2nc(-c3ccco3)nn12`?
TsaE inh: inactive

Results for CCCCC(C(=O)O)C(C)CC(=O)Nc1ccn(-c2ccccc2)n1 (centres undefined) ?
PK Bst: >57; TsaE inh: inactive

What do the screens show for `COc1cccc(C2C(C(=O)OC(C)C)=C(C)Nc3ncnn32)c1` (centres undefined)?
PK Bst: >57; TsaE inh: inactive

What do the screens show for `N#C/C(=C\Nc1ccc2c(c1)OCCO2)c1nc2ccccc2[nH]1`?
PK Bst: inconclusive; TsaE inh: inactive

How did CCOC(=O)C1CCN(C(C(=O)Nc2ccc3c(c2)OCCO3)c2ccccc2)CC1 (centres undefined) do in these assays?
PK Bst: >57; TsaE inh: inactive

How did O=C1c2c(O)cccc2Cc2cccc(O)c21 do in these assays?
TsaE inh: inactive

How did NC(=O)C1CCN(C(=O)CN2CCc3ccccc32)CC1 do in these assays?
PK Bst: >57; TsaE inh: inactive

How did CCN(CC)S(=O)(=O)c1ccc(NC(=O)Cn2c(=O)oc3ccccc32)cc1 do in these assays?
PK Bst: >57; TsaE inh: inactive

What do the screens show for `Cc1ccc(C(C)C)c(OCCn2c(=O)oc3ccccc32)c1`?
PK Bst: >57; TsaE inh: inactive

What do the screens show for `CC1C=CCC2C(=O)N(c3cccc(C(=O)N4CCN(c5ccc(F)cc5)CC4)c3)C(=O)C12` (centres undefined)?
PK Bst: >57; TsaE inh: inactive

How did Cc1ccc(C)c(S(=O)(=O)C(C#N)c2nc3ccccc3nc2N2CC(C)OC(C)C2)c1 (centres undefined) do in these assays?
PK Bst: >57; TsaE inh: inactive

Results for COc1ccc(OC)c(NC=C2C(=O)OC(C)(C)OC2=O)c1 ?
TsaE inh: inactive

How did C=CCOc1ccc2c(c1)c(S(=O)(=O)c1ccc(C)cc1)cn2COC do in these assays?
PK Bst: >57; TsaE inh: inactive

How did CN1CCc2ccccc2C1C1CCNCC1 (centres undefined) do in these assays?
PK Bst: >57; TsaE inh: inactive

How did Cc1nn(CCc2nc(-c3ccco3)cs2)c2[nH]c(=O)cc(C(F)(F)F)c12 do in these assays?
PK Bst: >57; TsaE inh: inactive

How did O=C1CC(N2CCOCC2)C(=O)N1c1cccc(Cl)c1 (centres undefined) do in these assays?
TsaE inh: inactive

Results for Cc1cnc(CNc2ncnc3ccc(-c4ccccc4CN(C)C)cc23)cn1 ?
TsaE inh: inactive

What do the screens show for `CCN(CC)S(=O)(=O)c1ccc2oc(C(=O)N3CCCCCC3)c(C)c2c1`?
PK Bst: >57; TsaE inh: inactive

How did COc1cccc(-n2c(C)nc3c(cnn3-c3ccc(Cl)cc3)c2=O)c1 do in these assays?
TsaE inh: inactive

What do the screens show for `CC(C)OCCCn1c(=N)c(C(N)=S)cc2c(=O)n3ccccc3nc21`?
PK Bst: >26

How did COc1ccc(S(=O)(=O)N2CCCC2C(=O)Nc2nccs2)cc1 (centres undefined) do in these assays?
PK Bst: >57; TsaE inh: inactive

Results for CCCC(c1nnnn1C(C)(C)CC)N(CCCO)Cc1cc2cc(C)cc(C)c2[nH]c1=O (centres undefined) ?
PK Bst: >57; TsaE inh: inactive

Results for COc1ccc(OC)c(C(C)NC(C)=O)c1 (centres undefined) ?
TsaE inh: inactive

Results for Cc1cc(=O)oc2c(N)c(O)ccc12 ?
TsaE inh: inactive

What do the screens show for `O=C(OCCCc1ccncc1)c1ccc(S(=O)(=O)N2CCOCC2)cc1`?
PK Bst: >57; TsaE inh: inactive

Results for CCOC(=O)C1=C(N)OC2=C(C(=O)CCC2)C1c1cccs1 (centres undefined) ?
TsaE inh: inactive

Results for CCCOC(=O)CSc1nc(N)c(C#N)c(CC)c1C#N ?
PK Bst: >57; TsaE inh: inactive

How did COc1ccc(OCc2nn3c(-c4ccccn4)nnc3s2)cc1 do in these assays?
PK Bst: >57; TsaE inh: inactive

How did COc1ccc(Cc2n[nH]c(=O)c3ccccc23)cc1OC do in these assays?
PK Bst: >57; TsaE inh: inactive

Results for CCCc1cc(=O)[nH]c(SCc2ccccc2)n1 ?
PK Bst: >57; TsaE inh: inactive

How did O=C(Nc1ccc(CN2CCOCC2)cc1)c1ccc(-c2ccc(Br)cc2)o1 do in these assays?
PK Bst: 7.1*; TsaE inh: inactive

Results for CCOC(=O)c1c(C)oc2c1cc(O)c1ccccc12 ?
TsaE inh: inactive

How did c1ccc(-c2cc(-c3nc(-c4ccccn4)no3)c3ccccc3n2)cc1 do in these assays?
TsaE inh: inactive

How did O=C(O)CCn1nnc(-c2cccs2)n1 do in these assays?
PK Bst: >57; TsaE inh: inactive

How did CN1CCN(C(c2cccnc2)c2ccc3cccnc3c2O)CC1 (centres undefined) do in these assays?
PK Bst: >57; TsaE inh: inactive

What do the screens show for `Cc1ccc(C2=Nc3ccccc3S[C@@H](c3cccc([N+](=O)[O-])c3)C2)cc1`?
TsaE inh: inactive

What do the screens show for `CC(NS(C)(=O)=O)C(c1cccs1)N1CCN(C)CC1` (centres undefined)?
PK Bst: >57; TsaE inh: inactive

Results for CC(C)(C)N(Cc1cc2ccccc2[nH]c1=O)C(=O)C1CCCCC1 ?
PK Bst: >57; TsaE inh: inactive

How did CCC(NC(=O)NCc1ccc2c(c1)OCO2)(C(F)(F)F)C(F)(F)F do in these assays?
PK Bst: >57; TsaE inh: inactive

Six records picked at random from the list so far, as already listed:
How did c1ccc(-c2cc(-c3nc(-c4ccccn4)no3)c3ccccc3n2)cc1 do in these assays?
TsaE inh: inactive

What do the screens show for `CC(NS(C)(=O)=O)C(c1cccs1)N1CCN(C)CC1` (centres undefined)?
PK Bst: >57; TsaE inh: inactive

Results for CC(C)(C)N(Cc1cc2ccccc2[nH]c1=O)C(=O)C1CCCCC1 ?
PK Bst: >57; TsaE inh: inactive

What do the screens show for `Cc1ccc(C2=Nc3ccccc3S[C@@H](c3cccc([N+](=O)[O-])c3)C2)cc1`?
TsaE inh: inactive

How did O=C(O)CCn1nnc(-c2cccs2)n1 do in these assays?
PK Bst: >57; TsaE inh: inactive

Results for CCOC(=O)c1c(C)oc2c1cc(O)c1ccccc12 ?
TsaE inh: inactive

Assay outcomes: PubChem, National Center for Advancing Translational Sciences (NCATS)
